# Calb FLC: affects C. albicans growth with fluconazole | growth inhibition, % (no concentration beside the values) | hit rate 0.57% among 300,000 | C. albicans CaCi-2 (fluconazole-resistant clinical isolate) + fluconazole, Alamar Blue growth, 48 h;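 active = most replicates above 75%; inconclusive = exactly half above 75%; inactive = most below 75%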;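 also: all wells also contain fluconazole at 8 µg/ml as a sub-toxic cotreatment; 0% = median of DMSO wells and 100% = median of geldanamycin control wells; wells of about 8 µL received 7.5 nL stock; the first replicate is given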
# Bfl-1 A1 inh: inhibitors of the anti-apoptotic protein A1, read as caspase activation; MEF A1-2A-BIM cells, Caspase-Glo 3/7 luminescence, 3 h; percent of clofoctol response, vehicle zero; caspase activation, % (no concentration beside the values); hit rate 0.066% among 330,000;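 active = over half of replicate activation scores above 10%, or exactly half above 10 with the replicate mean above 10; inconclusive = replicate mean below 10 yet half the replicates above 10; inactive = over half of replicates below 10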;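 also: wells of about 30 µL received 50 nL stock; many hits fall short of the cut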
# ALR H2O2 inh: human ALR oxidase inhibition via reduced H2O2; purified ALR, DTT oxidation, H2O2 HRP-luminol luminescence; inhibition, % (test concentration not listed); hit rate 3.8% among 290,000;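 active = mean and each replicate at 75% or more; inconclusive = only one of the two met; inactive = neither met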;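 also: stock transfer was 7.5 nL into about 7.5 µL; 0% = neutral wells and 100% = wells with inactivated enzyme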
# Target sequence (P55789 whole entry, looked up): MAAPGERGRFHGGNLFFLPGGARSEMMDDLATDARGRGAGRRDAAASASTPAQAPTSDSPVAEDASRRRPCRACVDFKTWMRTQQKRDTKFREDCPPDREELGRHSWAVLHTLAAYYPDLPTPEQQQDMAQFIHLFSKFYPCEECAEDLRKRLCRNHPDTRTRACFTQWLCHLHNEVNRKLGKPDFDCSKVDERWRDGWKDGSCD
# Ecoli rRNA inh: selective bacterial rRNA inhibition in E. coli; GFP signal change (wild-type ribosome), % (test concentration not listed); E. coli WT GFP vs humanized-ribosome RFP mutants, fluorescence, 24 h; hits give low values; DMSO median 0, no signal -100; hit rate 1.6% among 350,000;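 active = significant combined selectivity score with lowered wild-type GFP, culture density cut under 30%, mutant RFP and density less affected; inactive = any of these conditions unmet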; also: one replicate is shown; some compounds called inactive have numbers as strong as hits
# B2AR ag: activates human beta-2 adrenergic receptor causing internalization | Am2.2-beta2AR cells, FAP receptor internalization, flow cytometry; reference of the scale not given here | response, % (concentration not given with the values) | hit rate 0.43% among 340,000 | AID 504454;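 active = response above a set limit, near 3 SD of response in nonfluorescent compounds, cut at about 42% in these data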;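 also: stock transfer was 100 nL into about 11 µL; a reference agonist was the positive control; negative values mostly stem from fluorescent compounds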
# Target sequence (P07550 whole entry, looked up): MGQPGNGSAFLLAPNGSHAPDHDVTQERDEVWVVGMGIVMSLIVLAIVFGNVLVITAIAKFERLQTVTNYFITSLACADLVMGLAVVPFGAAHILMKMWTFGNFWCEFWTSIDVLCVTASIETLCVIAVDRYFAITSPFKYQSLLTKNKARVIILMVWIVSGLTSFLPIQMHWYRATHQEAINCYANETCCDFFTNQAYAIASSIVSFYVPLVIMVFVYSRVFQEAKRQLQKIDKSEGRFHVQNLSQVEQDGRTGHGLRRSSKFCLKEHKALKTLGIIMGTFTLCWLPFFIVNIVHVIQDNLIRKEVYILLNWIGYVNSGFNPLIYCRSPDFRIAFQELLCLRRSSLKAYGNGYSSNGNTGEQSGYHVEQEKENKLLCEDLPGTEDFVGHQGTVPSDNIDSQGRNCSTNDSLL
# LANA-H2A inh: blocks KSHV LANA binding to histone H2A/H2B | Q9QR71 | cell-free LANA-H2A/H2B peptide, fluorescence polarization | inhibition, % (concentration not given with the values) | hit rate 0.6% among 320,000 | AID 2629; in the data active = inhibition mostly above about 10%, no sharp cut-off; inactive = mostly below about 6.7%;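 also: stock transfer was 7.5 nL into about 10 µL; 0% = median of vehicle wells and 100% = median of positive control wells; one replicate is shown; the record names a cut of 25% in any replicate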
# Beta cell apopt: blocks beta cell apoptosis; INS-1E cytokine-induced death, ATP luminescence, 48 h; percent of positive-control rescue, neutral wells zero; AID 435005; hit rate 0.8% among 300,000; protection from apoptosis, % (test concentration not listed);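 active = all replicates at 75% or more, or half of them and the mean; inconclusive = half reach 75% but not the mean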;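 also: 0% = cytokine-treated negative control wells and 100% = positive control rescue; higher means more ATP so stronger rescue from cytokine killing; wells of about 40 µL received 100 nL stock; the first replicate is given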
# T cruzi repl: blocks replication of Trypanosoma cruzi; T. cruzi beta-gal in NIH3T3, luminescence, 90 h; inhibition, % (test concentration not listed); hit rate 1.4% among 300,000;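 active = mean inhibition across valid replicates above about 55%, limit read from the data; inconclusive = mean below that limit but half or more replicates reach it; inactive = mean below it, under half of replicates reach it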;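 also: signal also drops with host cell toxicity which is not excluded here; 0% = plate median of DMSO wells and 100% = zero luminescence signal; higher percent means less beta-gal luminescence so fewer parasites; stock transfer was 50 nL into about 50 µL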
# Ecoli rRNA inh OD600: further read-out of Ecoli rRNA inh, marked with its call; OD600 change, %; measured here: OD600 growth;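 optical density of the mix in the first replicate; 0 = DMSO median and -100 = no signal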
# Ecoli rRNA inh RFP: also measured in Ecoli rRNA inh; calls as there; RFP signal change, %; measured here: RFP humanized mutant strains;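 first replicate; 0 = DMSO median and -100 = no signal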
# * = called active by the depositor; u = inconclusive; x = not tested or not shown. Only part of the results is shown; the hit share may differ from the screen's.
# Screens in order – Beta cell apopt	LANA-H2A inh	T cruzi repl	Ecoli rRNA inh OD600	ALR H2O2 inh	Ecoli rRNA inh RFP	Bfl-1 A1 inh	B2AR ag	Ecoli rRNA inh	Calb FLC
O=C(Cc1cccc2ccccc12)NN1C(=O)C2C(C1=O)C1C=CC2C12CC2 (configuration not stated)
 : -4	-0.4	10	x	x	x	1.2	-15	x	-24
O=C1c2ccccc2NC(c2ccc(-c3ccc(C(F)(F)F)cc3)o2)N1O (configuration not stated)
 : 71	-6.0	x	12	11	7.0	-1.1	-11	10	x
CCc1cc(OCCN(C)C)ccc1Cl
 : -8	11	19	-1	-13	1.1	-0.4	4	6	11
Cc1cccc2cc(CN(Cc3ccco3)C(=O)c3ccncc3)c(=O)[nH]c12
 : -10	2.3	-3	x	1	x	0.4	-2	x	-1
COc1ccccc1C1=Nc2cccc3cccc(c23)N1
 : x	0.2	55*	26	12	-12	1.4	36	-7	u
O=C(O)c1cccc(NC(=O)c2ccc3c(c2)C(=O)N(C2CCCCC2)C3=O)c1
 : 2	-1.4	-25	-5	19	-1.5	-0.6	-7	-9	-6
Cc1ccc(C)c(SCC(=O)NCC(c2ccco2)N2CCCCC2)c1 (configuration not stated)
 : -1	9.0	3	-8	1	5.0	2.1	9	-8	0
CCCOc1ccc(CC(=O)NCC2(c3ccccc3)CCOCC2)cc1OC
 : 2	0.8	6	x	-2	x	0.0	8	x	10
Cc1ccc(S(=O)(=O)N2CCN(C(=O)C3CC(=O)N(c4ccc5c(c4)OCCO5)C3)CC2)cc1 (configuration not stated)
 : -10	2.1	x	-4	x	-0.7	0.1	0	2	x
COc1cc(/C=N\NC(=O)c2ccc(-c3ccccc3)cc2)cc(OC)c1O
 : 39	-7.9	-6	-32	96*	-11	0.5	13	-39	-8
COc1cccc(CNC(=O)CN(c2cc(C)cc(C)c2)S(=O)(=O)c2c(C)noc2C)c1
 : 3	-1.5	8	-3	-34	-6.4	-0.5	7	-7	1
Cc1ccccc1C(=O)Nc1scc(-c2ccc(Br)cc2)c1C(=O)O
 : 6	-3.9	-16	7	-1	4.6	-1.4	0	13	19
CCc1cccc(C)c1NC(=S)N(CCN(C)C)Cc1cccs1
 : 4	0.6	-8	-7	-24	0.4	0.6	10	-1	3
Cc1ccc(S(=O)(=O)N2CCN(C(=O)COC(=O)c3ccc(O)cc3)CC2)c(C)c1
 : 4	3.1	9	-5	-5	-2.3	0.6	10	0	11
CCCn1c(SCC(=O)Nc2ccccc2C(=O)NC2CC2)n[nH]c1=O
 : -15	1.7	x	x	1	x	-0.5	1	x	x
CC(C)N=C(NC#N)SCc1ccc(F)cc1
 : -2	-1.0	-15	x	-4	x	0.4	5	x	-6
Cc1ccc(C(=O)NCC(=O)Nc2ccc(F)c(F)c2F)cc1
 : -2	-2.7	-5	11	-1	-0.1	-0.3	0	6	-3
CCOc1ccc(N=c2scc(-c3ccccc3)n2CCO)cc1
 : 4	6.3	8	-26	25	-2.7	-0.2	-1	-27	-17
COc1ccccc1OCCNC(=O)c1ccc(C)o1
 : -2	0.2	3	-2	4	-1.8	0.2	3	0	x
CCCOC1CCCN(C(=O)c2cc(Cl)c(Cl)cc2C(=O)O)C1 (configuration not stated)
 : 1	2.3	-10	x	-4	x	-0.2	-2	x	-3
CN(c1ccccc1)S(=O)(=O)c1cccc(NC(=O)Cn2cnc3c2c(=O)n(C)c(=O)n3C)c1
 : -7	2.2	5	x	x	x	-0.8	3	x	-10
CCOc1ccc(N2CC(C(=O)Nc3ccccc3OC)CC2=O)cc1 (configuration not stated)
 : -3	-1.3	1	-4	-11	-1.8	0.1	-2	-5	-1
COC(=O)c1ccccc1NC(=O)CN1C(=O)c2ccccc2S1(=O)=O
 : -1	-5.3	-14	x	-1	x	-0.5	-3	x	3
Cc1nnc(N2CCC(C(=O)N3CCCCC3)CC2)c2nn(-c3ccc(Cl)cc3)c(C)c12
 : 9	-3.3	40	x	-7	x	0.5	2	x	25
CC(C)CC(C(=O)Nc1cccc(O)c1)N1C(=O)c2ccccc2C1=O (configuration not stated)
 : -3	-2.0	-22	6	x	-1.0	1.1	4	1	6
CC(C)(C)c1ccccc1OCCCCCNCCO
 : -3	1.2	23	x	-8	x	-0.5	5	x	-2
Cc1ccc(S(=O)(=O)N2CCOCC2)cc1C(=O)Nc1nc(-c2cccnc2)cs1
 : -9	-6.0	-11	7	-1	-4.2	-0.2	-12	15	3
O=C(COC(=O)COc1ccccc1[N+](=O)[O-])NC1CCCC1
 : -10	-2.2	2	x	3	x	0.4	-6	x	4
CCOC(=O)c1sc2nc3c(cc2c1N)C(=O)CC(C)(C)C3
 : -11	-2.9	-15	9	-14	2.0	-0.4	-4	18	-7
Cc1ccc(C)c(S(=O)(=O)N2CCC3(CC2)OCCN3S(=O)(=O)c2cccs2)c1
 : x	-0.2	12	3	-1	2.7	0.1	-3	5	3
Cc1cc(C)cc(NC(=O)c2ccc(S(=O)(=O)C(F)F)cc2)c1
 : 6	-1.0	-10	x	-4	x	0.9	14	x	-18
CCOC(=O)C(/C(C)=N/NC(=O)C1CC1c1ccccc1)C(C)C (configuration not stated)
 : -5	-2.7	-3	x	0	x	-0.9	-23	x	-10
CSc1nc2nc(-c3ccccc3)cc(C(F)(F)F)n2n1
 : -2	4.1	13	x	-3	x	0.8	-11	x	u
Cc1c(OCC(=O)NCCCN2CCOCC2)ccc2c(-c3ccccc3)cc(=O)oc12
 : 4	5.3	3	-7	-3	-1.1	-0.8	4	-3	-2
Nc1nnnn1/N=C/c1ccc(Br)cc1
 : x	2.0	-7	14	-1	2.5	0.7	5	17	-2
Cc1cccc(C)c1OCC(O)CNC(C)C (configuration not stated)
 : -5	11	-6	x	0	x	1.0	-1	x	-4
CCN(C(=O)CSc1nnc(-c2ccccc2Cl)n1C1CCCC1)C1CCS(=O)(=O)C1 (configuration not stated)
 : 0	0.4	8	x	0	x	-0.1	-3	x	-1
OCCN(Cc1ccccc1)CC1CCCCC1
 : 4	-2.4	-12	x	-47	x	-0.3	5	x	25
CCNc1nc(NCC)nc(-n2nc(C)cc2C)n1
 : 16	-2.5	-26	-20*	-4	-13*	0.8	3	-42*	-25
Cc1ccc(CNC(=O)c2ccc3c(c2)NC(=O)CS3)cc1
 : -3	-2.8	-1	-5	-1	1.3	0.7	5	-1	30
COc1ccc(COC(=O)N/N=C(\C)CC(=O)Nc2c(C)cc(C)cc2C)cc1
 : -6	-5.2	-5	x	-3	x	-0.4	4	x	-1
COc1cccc(NC(=O)CN(C)C(=O)COc2cc(C)ccc2Cl)c1
 : 1	-7.1	-7	-14	-2	3.3	0.4	5	-6	14
CC(C)(C)OC(=O)NCCc1nnc(SCc2ccccc2)o1
 : -8	3.6	1	4	0	-2.0	0.3	-3	5	-7
O=C(NC1CCCCC1)c1cc(S(=O)(=O)N2CCOCC2)ccc1Cl
 : 10	1.1	1	9	27	-2.5	0.0	17	-2	-12
CCOc1cccc(-c2nnc3sc(-c4ccco4)nn23)c1
 : -6	-1.6	25	x	x	x	-0.4	-6	x	-5
COc1cccc(CN2CC(C(=O)NCCn3ccc(C)n3)CCC2=O)c1 (configuration not stated)
 : -1	-0.5	-12	13	4	-1.2	0.5	16	7	8
CCOc1ccccc1/C=N/Nc1cc(C)nc2ccc(C)cc12
 : x	2.3	-8	-45	18	-4.5	-0.3	-8	-30	3
Cc1ccc(CC2C(=O)N(c3ccc(C)cc3)C(=O)C2C)cc1 (configuration not stated)
 : x	5.3	1	-21	-3	53	0.3	15	-21	-2
CC1CC(C)CN(C(=O)C(C)N2CCN(S(=O)(=O)c3cccs3)CC2)C1 (configuration not stated)
 : -2	2.1	x	-2	-2	1.7	-0.1	-9	1	x
COc1ccc(NC(=O)CSc2nnnn2Cc2ccccc2)cc1
 : 3	2.0	12	-5	2	0.7	0.1	-4	-18	3
C/C(=N\NC(=O)c1ccc(OC2CCCC2)cc1)c1ccc(C)s1
 : 3	-0.4	-1	x	-1	x	-0.4	2	x	-7
COc1ccc(C(=O)NCCCc2ccccc2)cc1OC
 : -3	3.3	1	1	-15	2.2	1.0	-7	8	19
O=C(c1ccccc1NS(=O)(=O)c1ccccc1[N+](=O)[O-])N1CCOCC1
 : -3	2.6	-19	x	x	x	0.3	-1	x	-11
C[C@H](NC(=O)C1CCN(S(=O)(=O)c2ccccc2)CC1)C(=O)NCc1cccc(Cl)c1
 : -3	-1.9	18	13	5	4.0	-1.7	-7	14	-12
O=C(N/N=C1\CCCc2c1[nH]c1ccc(Cl)cc21)c1ccncc1
 : 24	44*	52	-42	2	-15	1.3	45*	-37	-1
CN(CC(=O)NCCc1ccccc1)S(=O)(=O)c1ccc(Br)s1
 : 0	1.7	3	-17	1	-0.3	0.6	-5	-13	6
CN(c1ccc(-c2csc(NC(=O)C3CC(=O)N(Cc4ccco4)C3)n2)cc1)S(C)(=O)=O (configuration not stated)
 : 1	4.5	x	x	-4	x	0.3	12	x	x
CC(NS(C)(=O)=O)C(c1cccs1)N1CCN(Cc2ccccc2)CC1 (configuration not stated)
 : -3	7.5	-1	14	x	1.1	-1.5	3	9	4
O=C1C2N=NN(CC(=O)N3N=C(c4cccc5ccccc45)CC3c3ccccc3)C2C(=O)N1c1ccccc1 (configuration not stated)
 : 0	3.8	25	x	-2	x	0.3	0	x	-24
COc1ccc(NC(=O)C(c2ccccc2)c2ccccc2)c(OC)c1
 : -2	-1.1	16	x	-1	x	0.5	3	x	-9

# The listing continues.
# Screens in order – Beta cell apopt	LANA-H2A inh	T cruzi repl	Ecoli rRNA inh OD600	ALR H2O2 inh	Ecoli rRNA inh RFP	Bfl-1 A1 inh	B2AR ag	Ecoli rRNA inh	Calb FLC
COCCCNC(=O)COc1ccc(Cl)c(C)c1
 : x	-2.3	-4	x	x	x	0.2	3	x	8
O=C(Nc1ccc(Cl)c(Cl)c1)NC1CCS(=O)(=O)C1 (configuration not stated)
 : 3	0.9	-5	-58	-5	-5.8	0.5	-6	-42	-1
CNc1cc(CSC)nc(SCc2ccc(Cl)c(Cl)c2)n1
 : -8	-3.1	17	x	-19	x	-0.1	3	x	4
COCc1cc(=O)n2c(-c3ccccc3OC)n[nH]c2n1
 : -4	-3.1	-22	x	-12	x	0.7	-2	x	25
C=CCn1c(SCC(=O)Nc2ccc(C(=O)OCC)cc2)nnc1-c1sc(N)nc1C
 : -4	-1.3	-3	x	-4	x	0.2	-2	x	4
COc1ccc2c(c1)CCc1c(C(=O)Nc3c(C)n(C)n(-c4ccccc4)c3=O)noc1-2
 : 3	2.0	19	x	-38	x	0.0	8	x	28
Cc1ccc(-c2nc(N)n(C(=O)c3cccnc3)n2)cc1
 : -7	5.0	6	x	1	x	0.0	-3	x	2
Cc1ccc(-n2c(C)cc(/C=C3\NC(=O)NC3=O)c2C)c(C)c1
 : x	-3.9	1	17	21	-0.9	0.0	-1	-2	52
Cc1ccc(C)c(S(=O)(=O)N2CCCC2CNC(=O)C(=O)NCC2CCCO2)c1 (configuration not stated)
 : 2	4.6	-5	-5	-1	-2.9	1.1	-3	-4	-3

# Screening data as filed in PubChem BioAssay.
